Compound activity (PubChem BioAssay)
DUX4 inh = blocks DUX4-driven transcriptional activation; 293T-iDUX4 ZSCAN4-Gaussia luciferase reporter, 24 h; stronger effect = lower value; activity change, negative = inhibition, % (no concentration beside the values); hit rate 0.8% among 37,000;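 active = -10% or lower and over 25 points stronger than a control reporter; inconclusive = -10% or lower with a smaller gap; inactive = above -10%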;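 also: 0% = median of neutral control wells and -100% = median of positive control wells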
DUX4 inh difference = further read-out of DUX4 inh, marked with its call; Gaussia minus Italica difference, %; measured here: selective DUX4 reporter inhibition;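 worked out from the two reporters; negative = selective loss of the DUX4 reporter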
DUX4 inh control = also measured in DUX4 inh; calls as there; activity change, negative = inhibition, %; measured here: Italica tet-on control reporter;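 0 = neutral control and -100 = positive control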
Active calls of the source: *. This is a subset. The share of hits here may be higher or lower than overall.

`CO[C@@H]1CN(C)C(=O)c2cc(NS(C)(=O)=O)ccc2OC[C@@H](C)N(C(=O)C2CCOCC2)C[C@H]1C` gave DUX4 inh 10, DUX4 inh difference 6 and DUX4 inh control 4.7.
For O=C(C[C@H]1C[C@H]2c3cc(NS(=O)(=O)c4ccc(F)cc4)ccc3O[C@H]2[C@H](CO)O1)N1CCc2ccccc2C1 the results were DUX4 inh inconclusive.
COc1ccc(S(=O)(=O)N2CC[C@H]3[C@H](CO)Nc4ccc(C#Cc5ccccc5OC)cc4[C@H]32)cc1 was read as DUX4 inh 0, DUX4 inh difference 2 and DUX4 inh control -1.7.
For CO[C@H]1CC[C@@H]2CCOc3ccc(C#N)cc3C(=O)N(C)C[C@H](C)C(=O)N(C)C[C@@H]1O2 the results were DUX4 inh 2, DUX4 inh difference 3 and DUX4 inh control -1.6.
For C[C@H](CO)N1C[C@H](C)[C@@H](CN(C)Cc2ccc(Cl)c(Cl)c2)OCCCC[C@H](C)Oc2ccc(NC(=O)Nc3ccc4c(c3)OCO4)cc2C1=O the results were DUX4 inh -1, DUX4 inh difference -1 and DUX4 inh control 0.4.
For C[C@H](CO)N1C[C@H](C)[C@@H](CN(C)S(=O)(=O)c2ccccc2F)OCc2cn(nn2)CCCC1=O the results were DUX4 inh -3, DUX4 inh difference -1 and DUX4 inh control -1.8.
CCCC(=O)Nc1ccc2c(c1)C(=O)N(C)[C@@H]1CC[C@H](CC(=O)O)O[C@H]1CO2 was read as DUX4 inh 1, DUX4 inh difference 6 and DUX4 inh control -5.1.
For OC[C@H]1[C@H](c2ccc(C#Cc3ccccc3)cc2)[C@H]2CN(Cc3cncnc3)CCCCN21 the results were DUX4 inh inconclusive.
Screening COc1ccccc1CNC(=O)C[C@H]1C[C@H]2c3cc(NC(=O)Nc4ccccc4F)ccc3O[C@H]2[C@H](CO)O1 returned DUX4 inh -7, DUX4 inh difference -14 and DUX4 inh control 7.2.
For C[C@H]1CN([C@@H](C)CO)C(=O)c2cc(C#CCN(C)C)cnc2O[C@H]1CN(C)C(=O)Nc1cccc(F)c1 the results were DUX4 inh -4, DUX4 inh difference 1 and DUX4 inh control -4.8.
C[C@@H]1CN([C@H](C)CO)C(=O)c2cc(C#CC3CCCCC3)cnc2O[C@@H]1CN(C)S(=O)(=O)c1ccccc1 was read as DUX4 inh 2, DUX4 inh difference 3 and DUX4 inh control -1.0.
For CCN1[C@@H]2c3ccc(-c4ccccc4OC)c(=O)n3C[C@H]1[C@H](CO)[C@H]2C(=O)N[C@H](C)c1ccccc1 the results were DUX4 inh -2, DUX4 inh difference 6 and DUX4 inh control -8.2.
For CC(=O)NC[C@H]1[C@H](c2ccc(C3=CCCC3)cc2)[C@@H](CO)N1C(=O)NC(C)C the results were DUX4 inh 3, DUX4 inh difference -2 and DUX4 inh control 5.1.
Screening CC(C)C#Cc1ccc([C@H]2[C@@H](C#N)N(C(=O)c3ccccn3)[C@H]2CO)cc1 returned DUX4 inh 1, DUX4 inh difference 0 and DUX4 inh control 1.6.
For COCC(=O)Nc1ccc2c(c1)[C@H]1C[C@H](CC(=O)NCc3ccc(-c4ccccc4)cc3)O[C@@H](CO)[C@H]1O2 the results were DUX4 inh 4, DUX4 inh difference 5 and DUX4 inh control -1.5.
For CO[C@H](CN(C)Cc1ccc2c(c1)OCO2)[C@@H](C)CN(C(=O)Nc1ccc(F)cc1)[C@@H](C)CO the results were DUX4 inh -2, DUX4 inh difference -2 and DUX4 inh control -0.2.
For C[C@@H]1CN([C@@H](C)CO)C(=O)c2c(c3ccccc3n2C)-c2ccccc2CO[C@@H]1CN(C)C(=O)N[C@H](C)c1ccccc1 the results were DUX4 inh 8, DUX4 inh difference 5 and DUX4 inh control 2.6.
For O=C(C[C@H]1CC[C@H]2[C@@H](COC[C@H](O)CN2C(=O)c2ccccn2)O1)NC1CCC1 the results were DUX4 inh 8, DUX4 inh difference 0 and DUX4 inh control 7.9.
For CO[C@@H]1CN(C)C(=O)c2cc(NS(=O)(=O)c3cccc(Cl)c3)ccc2OC[C@@H](C)NC[C@@H]1C the results were DUX4 inh 8, DUX4 inh difference 7 and DUX4 inh control 1.0.
CS(=O)(=O)N1CC(=O)N2[C@H](CO)[C@H](c3ccc(C#Cc4ccccc4)cc3)[C@@H]2C1 was read as DUX4 inh 0, DUX4 inh difference -11 and DUX4 inh control 11.

Nothing new here: 2 of the compounds above.
`CO[C@@H]1CN(C)C(=O)c2cc(NS(C)(=O)=O)ccc2OC[C@@H](C)N(C(=O)C2CCOCC2)C[C@H]1C` gave DUX4 inh 10, DUX4 inh difference 6 and DUX4 inh control 4.7.
For O=C(C[C@H]1C[C@H]2c3cc(NS(=O)(=O)c4ccc(F)cc4)ccc3O[C@H]2[C@H](CO)O1)N1CCc2ccccc2C1 the results were DUX4 inh inconclusive.

(next part)
For O=C(C[C@@H]1CC[C@@H](NC(=O)c2ccccn2)[C@@H](CO)O1)NCc1cc(F)cc(F)c1 the results were DUX4 inh -1, DUX4 inh difference -2 and DUX4 inh control 1.1.
C[C@@H]1CN([C@@H](C)CO)C(=O)c2cc(C#Cc3ccncc3)cnc2O[C@H]1CN(C)S(=O)(=O)c1ccccc1F was read as DUX4 inh 0, DUX4 inh difference 1 and DUX4 inh control -1.2.
Screening Cc1ccc(-c2ccc([C@H]3[C@H](CO)N4C(=O)CN(C(=O)Nc5cccc(F)c5)C[C@@H]34)cc2)cc1 returned DUX4 inh -4, DUX4 inh difference -2 and DUX4 inh control -2.2.
`COCC(=O)Nc1ccc2c(c1)C(=O)N(C)[C@H]1CC[C@@H](CC(=O)O)O[C@@H]1CO2` gave DUX4 inh 1, DUX4 inh difference 1 and DUX4 inh control -0.1.
For COc1ccccc1S(=O)(=O)N(C)C[C@@H]1Oc2cc(/C=C/c3ccccc3)ccc2S(=O)(=O)N([C@@H](C)CO)C[C@H]1C the results were DUX4 inh -2, DUX4 inh difference -2 and DUX4 inh control -0.1.
Screening O=C(C[C@@H]1C[C@H]2c3cc(NC(=O)Nc4ccccc4F)ccc3O[C@H]2[C@@H](CO)O1)NCc1ccncc1 returned DUX4 inh -2, DUX4 inh difference -2 and DUX4 inh control 0.6.
Screening CC=Cc1ccc2n(c1=O)C[C@@H]1[C@@H](CO)[C@H](C(=O)NCc3ccccc3F)N(CCC)[C@H]21 (mixture of isomers) returned DUX4 inh -4, DUX4 inh difference -5 and DUX4 inh control 0.3.
`C[C@H]1CN([C@@H](C)CO)S(=O)(=O)c2ccc(Br)cc2O[C@@H]1CN(C)Cc1cncnc1` gave DUX4 inh 3, DUX4 inh difference 2 and DUX4 inh control 0.5.
`CN(C)C(=O)C[C@@H]1C[C@@H]2c3cc(NC(=O)C4CCOCC4)ccc3O[C@@H]2[C@@H](CO)O1` gave DUX4 inh 7, DUX4 inh difference 4 and DUX4 inh control 3.0.
For CCN1[C@@H]2c3ccc(C4=CCCCC4)c(=O)n3C[C@@H]2[C@@H](CO)[C@@H]1C(=O)NC1Cc2ccccc2C1 the results were DUX4 inh 0, DUX4 inh difference -1 and DUX4 inh control 1.0.
`O=C(C1CCC1)N1CC2(C1)[C@H](c1ccccc1)[C@@H](CO)N2C(=O)c1ccccn1` gave DUX4 inh 0, DUX4 inh difference -1 and DUX4 inh control 0.9.
`C[C@@H]1CN([C@@H](C)CO)S(=O)(=O)c2ccc(-c3cncnc3)cc2O[C@@H]1CN(C)Cc1ccc(Oc2ccccc2)cc1` gave DUX4 inh -4, DUX4 inh difference 0 and DUX4 inh control -4.1.
`COc1ccccc1CNC(=O)C[C@@H]1CC[C@H]2[C@@H](COC[C@H](O)CN2C(=O)Nc2ccc(C(F)(F)F)cc2)O1` gave DUX4 inh inconclusive.
Screening COc1ccccc1S(=O)(=O)N(C)C[C@@H]1Oc2ncc(-c3ccc(C)cc3)cc2C(=O)N([C@H](C)CO)C[C@H]1C returned DUX4 inh 0, DUX4 inh difference -1 and DUX4 inh control 1.2.
For COc1cccc(S(=O)(=O)N2C[C@@H](O)COC[C@@H]3O[C@H](CC(=O)Nc4ccccc4)CC[C@H]32)c1 the results were DUX4 inh -3, DUX4 inh difference -11 and DUX4 inh control 8.5.
For C[C@@H]1CN([C@H](C)CO)C(=O)c2cc(C#CC3(O)CCCC3)cnc2O[C@@H]1CN(C)S(=O)(=O)c1cccc(F)c1 the results were DUX4 inh -1, DUX4 inh difference -2 and DUX4 inh control 1.8.
COc1ccc(C#Cc2ccc3c(c2)[C@H]2[C@H](CCN2C(=O)c2ccccn2)[C@H](CO)N3)cc1 was read as DUX4 inh inconclusive.
Screening Cc1noc(C)c1S(=O)(=O)N(C)C[C@H]1OCCCC[C@@H](C)Oc2ccc(NC(=O)CCC(F)(F)F)cc2C(=O)N([C@H](C)CO)C[C@@H]1C returned DUX4 inh 1, DUX4 inh difference 4 and DUX4 inh control -2.8.
For O=S(=O)(Cc1ccccc1)N1CCCCN2[C@H](CO)[C@H](c3ccc(-c4ccc(F)cc4)cc3)[C@@H]2C1 the results were DUX4 inh -7, DUX4 inh difference -3 and DUX4 inh control -4.0.
Screening CN1C(=O)c2cc(NC(=O)c3ccc(Cl)cc3)ccc2OC[C@H]2O[C@H](CC(=O)O)CC[C@@H]21 returned DUX4 inh 0, DUX4 inh difference 1 and DUX4 inh control -1.7.
Screening CCC(=O)N1[C@H](CO)[C@@H]2c3ccccc3N(S(=O)(=O)c3ccccc3F)C[C@@H]21 returned DUX4 inh 2, DUX4 inh difference 1 and DUX4 inh control 0.3.
Screening N#C[C@@H]1[C@H](c2ccccc2C2=CCCCC2)[C@@H](CO)N1C(=O)Cc1ccncc1 returned DUX4 inh inconclusive.
For COc1ccc2c3c(n(C)c2c1)[C@@H](CO)N(Cc1cc(F)ccc1F)CC31CN(C(=O)C2CC2)C1 the results were DUX4 inh -8, DUX4 inh difference -5 and DUX4 inh control -2.7.
`C[C@@H](NC(=O)C[C@H]1CC[C@H]2[C@H](COc3ccc(NC(=O)C4CCOCC4)cc3C(=O)N2C)O1)c1ccccc1` gave DUX4 inh -2, DUX4 inh difference 0 and DUX4 inh control -2.2.
For C[C@H](CO)N1C[C@H](C)[C@@H](CN(C)S(=O)(=O)c2ccc(-n3cccn3)cc2)OCc2cnnn2CCCC1=O the results were DUX4 inh 1, DUX4 inh difference 4 and DUX4 inh control -3.3.
`N#C[C@@H]1[C@@H](c2ccc(-c3cncnc3)cc2)[C@H](CO)N1C(=O)C1CCOCC1` gave DUX4 inh 3, DUX4 inh difference -1 and DUX4 inh control 3.1.
Screening C/C=C/c1ccc([C@@H]2[C@@H](CO)N(C(C)=O)C23CN(C(=O)NC2CCCCC2)C3)cc1 returned DUX4 inh -5, DUX4 inh difference -22 and DUX4 inh control 17.
`CN1CCN(C(=O)C[C@@H]2C[C@H]3c4cc(NC(=O)C5CCC5)ccc4O[C@H]3[C@H](CO)O2)CC1` gave DUX4 inh 12, DUX4 inh difference 4 and DUX4 inh control 8.1.
For N#C[C@H]1[C@@H](c2ccc(C3=CCCC3)cc2)[C@@H](CO)N1C(=O)C1CCOCC1 the results were DUX4 inh -2, DUX4 inh difference 4 and DUX4 inh control -5.9.
C[C@H]1CN([C@@H](C)CO)C(=O)c2ccccc2-c2ccccc2CO[C@@H]1CN(C)C(=O)c1ccccc1 was read as DUX4 inh 2, DUX4 inh difference 0 and DUX4 inh control 1.9.

Five entries picked at random from the list so far, as already listed:
`C[C@@H](NC(=O)C[C@H]1CC[C@H]2[C@H](COc3ccc(NC(=O)C4CCOCC4)cc3C(=O)N2C)O1)c1ccccc1` gave DUX4 inh -2, DUX4 inh difference 0 and DUX4 inh control -2.2.
`CN1CCN(C(=O)C[C@@H]2C[C@H]3c4cc(NC(=O)C5CCC5)ccc4O[C@H]3[C@H](CO)O2)CC1` gave DUX4 inh 12, DUX4 inh difference 4 and DUX4 inh control 8.1.
Screening C/C=C/c1ccc([C@@H]2[C@@H](CO)N(C(C)=O)C23CN(C(=O)NC2CCCCC2)C3)cc1 returned DUX4 inh -5, DUX4 inh difference -22 and DUX4 inh control 17.
For N#C[C@H]1[C@@H](c2ccc(C3=CCCC3)cc2)[C@@H](CO)N1C(=O)C1CCOCC1 the results were DUX4 inh -2, DUX4 inh difference 4 and DUX4 inh control -5.9.
Screening CCC(=O)N1[C@H](CO)[C@@H]2c3ccccc3N(S(=O)(=O)c3ccccc3F)C[C@@H]21 returned DUX4 inh 2, DUX4 inh difference 1 and DUX4 inh control 0.3.

Further compounds follow.
Cc1noc(C)c1NC(=O)Nc1ccc2c(c1)C(=O)N([C@H](C)CO)C[C@@H](C)[C@H](CN(C)S(=O)(=O)c1cn(C)cn1)OCCCC[C@@H](C)O2 was read as DUX4 inh -4, DUX4 inh difference -6 and DUX4 inh control 1.8.
Screening CO[C@H]1CN(C)C(=O)c2cc(NC(=O)c3ccc4c(c3)OCO4)ccc2OC[C@H](C)N(CC2CC2)C[C@@H]1C returned DUX4 inh -3, DUX4 inh difference -7 and DUX4 inh control 3.9.
`C[C@@H]1CCCCO[C@@H](CN(C)Cc2ccc(Cl)c(Cl)c2)[C@H](C)CN([C@H](C)CO)C(=O)c2cc(NC(=O)Nc3ccc4c(c3)OCO4)ccc2O1` gave DUX4 inh 1, DUX4 inh difference -3 and DUX4 inh control 4.2.
COc1cccc(-c2ccccc2[C@H]2[C@@H](CO)N(C(=O)Cc3ccccc3)[C@H]2C#N)c1 was read as DUX4 inh inconclusive.
Screening CO[C@H]1CN(C)C(=O)c2ccc(NC(=O)c3cccc(Oc4ccccc4)c3)cc2OC[C@@H](C)NC[C@@H]1C returned DUX4 inh inconclusive.
For COc1ccc(S(=O)(=O)N[C@@H]2C=C[C@H](CC(=O)N3CCC(Cc4ccccc4)CC3)O[C@H]2CO)cc1 the results were DUX4 inh -4, DUX4 inh difference -6 and DUX4 inh control 1.8.
`CCNC(=O)[C@H]1[C@H](CO)[C@H]2Cn3c(ccc(-c4ccccc4)c3=O)[C@H]2N1CC1CC1` gave DUX4 inh 1, DUX4 inh difference 7 and DUX4 inh control -5.1.
For COc1ccccc1S(=O)(=O)N(C)C[C@@H]1OCc2cnnn2CCCC(=O)N([C@H](C)CO)C[C@@H]1C the results were DUX4 inh 0, DUX4 inh difference -7 and DUX4 inh control 6.4.
